# RE007 growth inh = less growth of the S. pombe RE007 Vpr strain. Potency, µM (doses to about 92.2 µM), inactives show at the highest dose activity change, negative = less growth. hit rate 0.21% among 360,000. S. pombe RE007 Vpr strain, BacTiter-Glo ATP luminescence, 24 h; control for the full effect not named in the record; active = well fitted falling curve with a large enough effect; inconclusive = small, poorly fitted or top-dose-only effect; inactive = no such curve, though single readings can be large or run the other way;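 note: % is set by controls: 0 for no effect and ±100 for the full control effect; nearly all actives have a fitted effect of over 50% in size; the assay follows cell death caused by Vpr and the record does not say whether a fall means rescue or toxicity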
#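 Fission yeast RE007 carrying one integrated HIV-1 vpr copy, seeded at OD 0.01 in PMG+AL medium with 23 nL pinned compound. Grown 24 h at 30 degrees; viability read by BacTiter-Glo luminescence after 5 min.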
# SARS PLP yeast = blocks SARS-CoV papain-like protease in a yeast assay | Potency, µM (top dose mostly 32.9 µM), without a hit: at the highest dose activity, positive = growth rescue | S. cerevisiae expressing SARS-CoV PLpro, growth rescue; control for the full effect not named in the record | hit rate 0.19% among 330,000 | AID 485353; active means well fitted rising curve with a large enough effect; inconclusive means small, poorly fitted or top-dose-only effect; inactive means no such curve, though single readings can be large or run the other way; note: 0% is about no effect; nearly all actives have a fitted effect of over 55% in size; growth read by luminescence after 48 h
# Cruzain inh Det = cruzain (T. cruzi) inhibition with detergent; purified cruzain, Z-FR-AMC fluorescence, 0.01% Triton; Potency, µM, without a hit: max response, negative = inhibition, hits mostly inhibitors; hit rate 0.43% among 200,000;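 note: plate controls were neutral wells for no effect and buffer without enzyme for full effect; nearly all actives have a fitted effect of over 40% in size; top concentration of the series not given in the record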
# Target sequence (P25779 123-467 limits assumed): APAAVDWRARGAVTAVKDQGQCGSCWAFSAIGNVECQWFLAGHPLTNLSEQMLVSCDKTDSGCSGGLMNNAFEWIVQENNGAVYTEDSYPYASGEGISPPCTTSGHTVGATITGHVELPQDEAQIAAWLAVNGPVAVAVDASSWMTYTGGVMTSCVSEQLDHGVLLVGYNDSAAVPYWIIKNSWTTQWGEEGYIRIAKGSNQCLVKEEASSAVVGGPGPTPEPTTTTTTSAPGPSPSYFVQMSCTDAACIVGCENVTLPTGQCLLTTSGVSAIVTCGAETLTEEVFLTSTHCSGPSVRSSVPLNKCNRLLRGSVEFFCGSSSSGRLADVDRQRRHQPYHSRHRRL
#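 Detergent-containing arm of a paired screen for aggregation-based inhibition: 0.01% Triton X-100 present. Cruzain at 1.5 nM cleaved 2 uM Z-FR-AMC at pH 5.5 with 5 mM DTT; AMC fluorescence gain over 60 s measured activity.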
# Cruzain inh noDet = blocks cruzain activity in detergent-free assay. P25779. purified cruzain, Z-FR-AMC fluorescence, no detergent. Potency, µM, for the others: max response, negative = inhibition, usual class: inhibitors. hit rate 2.3% among 200,000;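 note: plate controls were enzyme without inhibitor for no effect and buffer without enzyme for full effect; nearly all actives have a fitted effect of over 40% in size; top concentration of the series not given in the record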
#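 Detergent-free condition (0.00005% Triton X-100) in acetate buffer pH 5.5 with DTT. 1.5 nM enzyme and compound were pre-mixed 15 min, then 2 uM Z-FR-AMC substrate added; reaction progress from fluorescence change between first and third reads (60 s).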
# LASV entry inh = Lassa virus entry inhibition; hit rate 1.2% among 300,000; Potency, µM (titrated, usually from 37.9 µM), without a hit: at the top dose activity change, negative = inhibition, actives largely listed as inhibitors; Lassa virus pseudotype entry inhibition, cell reporter; control for the full effect not named in the record; active means well fitted inhibition curve with a large enough effect; inconclusive means small, poorly fitted or top-dose-only effect, or effect the other way; inactive means flat fitted curve, though single readings scatter; tested in HEK293 cells; note: % is set by controls: 0 for no effect and ±100 for the full control effect; nearly all actives have a fitted effect of over 50% in size; luciferase read-out
# NS1 inh = influenza NS1 inhibition. S. cerevisiae slowed by influenza A NS1, growth recovery by OD600. Potency, µM (titrated, usually from 46.1 µM), inactives show at the highest dose activity, positive = more growth. hit rate 0.4% among 270,000. AID 2326; active means well fitted rising curve with a large enough effect; inconclusive means small, poorly fitted or top-dose-only effect; inactive means no such curve, though single readings can be large or run the other way; note: nearly all actives have a fitted effect of over 50% in size
#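 In this qHTS, NS1 from influenza A is expressed in budding yeast, where it slows growth. Cells are switched from glucose to 2% galactose medium (pH 6.0, -URA), treated with compound, and growth recovery is read at OD600.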
# Marburg entry inh = blocks Marburg virus binding to or entry into cells; Marburg virus pseudotyped entry inhibition, cell reporter; control for the full effect not named in the record; about a third of the inactives were read at about 46 µM; Potency, µM (series often up to 37.8 µM), without a hit: top-dose activity change, negative = inhibition, actives largely listed as inhibitors; hit rate 1.8% among 300,000; AID 540276; active = well fitted inhibition curve with a large enough effect; inconclusive = small, poorly fitted or top-dose-only effect, or effect the other way; inactive = flat fitted curve, though single readings scatter; tested in HEK293 cells; about a fifth of its hits are not listed in these tables; note: % is set by controls: 0 for no effect and ±100 for the full control effect; luciferase read-out
# StopGo reporter = lowers the luciferase signal of an FMDV 2A StopGo reporter; AID 1159524; hit rate 1.2% among 410,000; Potency, µM (doses to about 57.9 µM), for the others: top-dose signal change, negative = less light; human cells with a luciferase reporter of 2A StopGo recoding; control for the full effect not named in the record; active = well fitted falling curve with a large enough effect; inconclusive = small, poorly fitted or top-dose-only effect; inactive = no such curve, though single readings can be large or run the other way; tested in HEK293T cells; note: % is set by controls: 0 for no effect and ±100 for the full control effect; nearly all actives have a fitted effect of over 45% in size; luciferase light after 4 h
# * marks the source's active call; other numbers are inactive results; u = inconclusive; x = no result given; & = joins results of further samples; [ ] = dose if it differs, or a comment. Unless noted, calls come from the whole dose curve; as a rule, active = well fitted curve in the direction sought with a large enough effect; inconclusive = small, poorly fitted or top-dose-only effect, or another doubt; inactive = no such curve, though single readings can be large; an effect the other way counts as inactive or inconclusive. Potency is the fitted concentration of half-maximal effect.
[1] Clc1ccc(N=c2ssnc2Cl)cc1
[2] CN(C)c1ccc(C(CN)c2c[nH]c3ccccc23)cc1 (stereo not drawn)
[3] Cc1cc(C)n(-c2cccc(F)n2)n1
[4] CCN(CC(N)=O)S(=O)(=O)c1ccc(Br)cc1
[5] CCCC/C(O)=C/c1nc2ccccc2[nH]c1=O
[6] O=C(N/N=C/c1ccccn1)c1cc(-c2ccncc2)nc2ccccc12
[7] COc1ccc(-c2cc(C)no2)cc1S(=O)(=O)NCCCN(C)Cc1ccccc1
[8] O=C(c1ccccc1F)N1CCCC(c2ccccc2)C1 (stereo not drawn)
Compound	1	2	3	4	5	6	7	8
RE007 growth inh	u	-4%	1%	3%	17%	9%	2%	17%
SARS PLP yeast	-91%	-3%	0%	0%	0%	-1%	-2%	14%
Cruzain inh Det	-21%	x	x	3.0%	8.5%	-3.1%	x	-2.4%
Cruzain inh noDet	-24%	x	x	10%	u	-3%	x	1%
LASV entry inh	13%	x	0%	7%	5%	u	x	-10%
NS1 inh	-51%	14%	x	5%	0%	-8%	-7%	3%
Marburg entry inh	-22%	x	-5%[46.1 µM]	u	17%	u	x	-19%
StopGo reporter	u	27%	-6%	x	14%	-18%	10%	-24%

# Grouped by structure, those above containing an NH in an aromatic ring
[2] CN(C)c1ccc(C(CN)c2c[nH]c3ccccc23)cc1 (stereo not drawn)
[5] CCCC/C(O)=C/c1nc2ccccc2[nH]c1=O
Compound	2	5
RE007 growth inh	-4%	17%
SARS PLP yeast	-3%	0%
Cruzain inh Det	x	8.5%
Cruzain inh noDet	x	u
LASV entry inh	x	5%
NS1 inh	14%	0%
Marburg entry inh	x	17%
StopGo reporter	27%	14%

# Continuation.
[9] CCN(CC)S(=O)(=O)c1cc(Br)ccc1OC
[10] COc1ccc(OC)c(CNC(=O)C(C)n2nc(C)c3c(C)n(-c4ccccc4)nc3c2=O)c1 (stereo not drawn)
[11] CCOc1ccc(C(=O)CCC(=O)N2CCN(c3ncccn3)CC2)cc1
[12] Cn1c(CCN2CCN(c3ccccc3)CC2)nc2cc(NC(=O)c3ccco3)ccc21
[13] COc1ccc(Cn2c(CO)cnc2SCc2cccc(C)c2)cc1
[14] Cc1cc(C)c2[nH]c(O)c(N=NC(=O)c3cc4c(s3)CCCC4)c2c1
[15] CCCCCCCCCCCCCCCC(=O)OC/C=C(C)/C=C/C=C(C)/C=C/C1=C(C)CCCC1(C)C
[16] NC(=O)CC1C(=O)N(c2ccccc2)C(=S)N1NC(=O)c1ccccc1 (stereo not drawn)
Compound	9	10	11	12	13	14	15	16
RE007 growth inh	-8%	14%	4%	-2%	x	x	8%	5%
SARS PLP yeast	-5%	-6%	-3%	0%	x	-11%	-2%	2%
Cruzain inh Det	-1.0%	x	x	-1.2%	-3.6%	-2.4%	-11%	x
Cruzain inh noDet	-7%	x	x	-6%	2%	-29%	9%	x
LASV entry inh	-3%	u	u	u	5%[46.1 µM]	6%	x	-1%[46.1 µM]
NS1 inh	2%	10%	-2%	-16%	x	45%	x	3%
Marburg entry inh	-2%	u	2%	-2%	x	4%	x	u
StopGo reporter	1%	-8%	-13%	u	29%	x	0%&6%	15%

[17] CCC(C)C(NS(=O)(=O)c1ccc(C)cc1)C(=O)Oc1ccc2c3c(c(=O)oc2c1)CCC3 (stereo not drawn)
[18] Cc1cc(NS(=O)(=O)c2ccc(NC(=O)Nc3ccc4c(c3)OCO4)cc2)no1
[19] CC(=O)c1ccc(C(C)(C)c2ccc(C(C)=O)s2)s1
[20] C/C(=C\c1ccccc1)C(=O)N1CCN(c2cccc(C(F)(F)F)c2)CC1
[21] CN1CCN(c2ccccc2NC(=O)c2cccc(OCc3ccccc3)c2)CC1
[22] CCCCCn1c(CN2CCN(c3cc(Cl)ccc3C)CC2)nc2c1c(=O)[nH]c(=O)n2C
[23] Cc1ccc(N2CC(C(=O)Nc3ccc(Br)cc3)CC2=O)cc1 (stereo not drawn)
[24] CC(C)OCCCNC(=O)CN1C(=O)/C(=C/c2ccccc2F)Oc2ccccc21
Compound	17	18	19	20	21	22	23	24
RE007 growth inh	5%	10%	5%	-2%	-6%	0%	x	-12%
SARS PLP yeast	4%	6%	-2%	0%	-3%	1%	x	1%
Cruzain inh Det	-7.7%	-7.2%	-0.8%	-12%	1.3%	-4.1%	-1.2%	x
Cruzain inh noDet	-9%	-17%	-17%	9%	-2%	u	-10%	x
LASV entry inh	14%	u	u	1%	6%	u	-9%[46.1 µM]	1%[46.1 µM]
NS1 inh	17%	6%	-32%	-14%	-35%	-65%	x	-3%
Marburg entry inh	4%	1%	2%	-17%	u	16µM*	x	24%[46.1 µM]
StopGo reporter	-11%	10%	0%	u	x	28µM*	3%	-6%

[25] CCOC(=O)c1cc(-c2ccccc2)sc1NC(=O)COC(=O)c1ccc(Cl)c(S(N)(=O)=O)c1
[26] CC(C)C(=O)N(c1cc2sc(=O)oc2c2ccccc12)S(=O)(=O)c1cccs1
[27] CCCN1CCN(C(=O)Cn2cnc3sc(C)c(S(=O)(=O)N4CCC(C)CC4)c3c2=O)CC1
[28] COc1ccc(CCNS(=O)(=O)c2cc(-c3cc(C)no3)ccc2C)cc1OC
[29] CN(Cc1nc(-c2ccc(Cl)cc2)no1)C(=O)c1ccc2c(c1)OCO2
[30] O=C(COc1ccc(Br)cc1)NCCNC(=O)c1ccccn1
[31] CCCN=CC1=C(O)CC(c2ccccc2)CC1=O (stereo not drawn)
[32] c1ccc(-c2ccc3nnnn3n2)cc1
Compound	25	26	27	28	29	30	31	32
RE007 growth inh	-1%	9%	1%	x	35%	-13%	-7%	-9%
SARS PLP yeast	15%	4%	-1%	x	-16%	0%	-6%	-1%
Cruzain inh Det	x	-0.5%	x	0.8%	x	x	-3.4%	x
Cruzain inh noDet	x	u	x	-5%	x	x	14%	x
LASV entry inh	2%	-28%	7%[46.1 µM]	-8%[46.1 µM]	0%	23%	1%	x
NS1 inh	12%	-2%	0%	x	x	0%	-3%[9.22 µM]	3%
Marburg entry inh	-15%[46.1 µM]	1%	7%[46.1 µM]	x	-16%	u	-13%	x
StopGo reporter	u	0%	-12%	21%	u	-16%	-14%	-10%

[33] CCCc1cc2c(cc1NC(=O)c1ccco1)OCO2
[34] O=C1c2ccc([N+](=O)[O-])cc2S(=O)(=O)N1Cc1ccccc1
[35] O=C(CSc1nccc(=O)[nH]1)NCc1ccco1
[36] CCCN(CCC)C(=O)C(c1ccccc1)C1(O)CCCCC1 (stereo not drawn)
[37] O=c1nccc(N/N=C/c2ccccc2)[nH]1
[38] COc1cc(Nc2nc(SCC(=O)c3ccc(Cl)c(Cl)c3)nc3ccccc23)cc(OC)c1
[39] CC1(C)Cc2c(sc3[nH]c(=S)n(Cc4ccco4)c(=O)c23)CO1
[40] O=Cc1c(-c2ccccc2)nc2ccccn12
Compound	33	34	35	36	37	38	39	40
RE007 growth inh	23%	u	1%	-14%	-1%	x	-4%	-14%
SARS PLP yeast	0%	-5%	10%	x	6%	x	8%	0%
Cruzain inh Det	x	x	x	x	x	0.6%	-7.3%	x
Cruzain inh noDet	x	x	x	x	x	6.3µM*	-8%	x
LASV entry inh	5%	u	x	-2%[46.1 µM]	x	2%[46.1 µM]	u	x
NS1 inh	1%	2%	-3%	x	-2%	x	5%	-2%
Marburg entry inh	1%[46.1 µM]	u	x	u	x	x	-8%&-8%	x
StopGo reporter	-1%	-13%	23%	-13%	33%[activator]	-19%	x	12%

[41] CN1C(=O)C(O)(CC(=O)c2ccccn2)c2cc(Br)ccc21 (stereo not drawn)
[42] CCc1c(C)c(C#N)c2[nH]c3ccccc3n2c1=S
[43] CC(=O)NC1C(=O)N=C(SCC(=O)Nc2cccc(Cl)c2)NC1=O (stereo not drawn)
[44] Cc1cccc(N(C)C(=S)Oc2ccc3ccccc3c2)c1
[45] O=[N+]([O-])c1c(NCCO)cc(N2CCCCC2)c2nonc12
[46] COc1cc(-c2nc(Cn3nnc(C(=O)Nc4ccccc4)c3C)c(C)o2)cc(OC)c1OC
[47] CCN1CCN(Cc2c(C(=O)N/N=C(\C)c3ccc(Cl)cc3)nnn2-c2nonc2N)CC1
[48] Cc1nc(NC(=O)c2ccccc2)sc1-c1csc(Nc2cccc(F)c2)n1
[49] CCOC(=O)C1CCCN(c2nc3c(S(=O)(=O)c4ccc(CC)cc4)nnn3c3ccc(Cl)cc23)C1 (stereo not drawn)
[50] CCOC(=O)c1ccc(N2CCN(c3cc(Cl)ccc3C)CC2)c(NC(=O)Nc2cccc(OC)c2)c1
[51] CN(C)S(=O)(=O)c1cccc(CSCc2cccc(S(=O)(=O)N(C)C)c2)c1
Compound	41	42	43	44	45	46	47	48	49	50	51
RE007 growth inh	-15%	-10%	-17%	19%	9%	x	-9%	x	x	x	-4%
SARS PLP yeast	-1%	-6%	-3%	-16%	1%	x	0%	-8%	x	x	1%
Cruzain inh Det	-1.4%	x	x	-6.1%&-6.2%&-5.2%	x	-6.8%	x	4.7%	-6.8%	-0.4%	x
Cruzain inh noDet	4%	x	x	-11%&-4%&-6%	x	u	x	u	-20%	u	x
LASV entry inh	-14%	u	-8%	-2%	-21%	u	0%[46.1 µM]	x	x	4%[46.1 µM]	u
NS1 inh	-24%	-45%	x	-8%	4%	x	3%	-2%	x	x	2%
Marburg entry inh	-20%	2%[46.1 µM]	10%	-8%&-8%&-8%&-8%&-8%	-22%[46.1 µM]	u	-9%[46.1 µM]	x	-17%[46.1 µM]	x	u
StopGo reporter	-26%	u	0%	-23%&11%	-15%	0%	0%	x	-5%	-13%	u

# Sorted by molecular weight (rising): three of the compounds above.
[1] Clc1ccc(N=c2ssnc2Cl)cc1
[11] CCOc1ccc(C(=O)CCC(=O)N2CCN(c3ncccn3)CC2)cc1
[27] CCCN1CCN(C(=O)Cn2cnc3sc(C)c(S(=O)(=O)N4CCC(C)CC4)c3c2=O)CC1
Compound	1	11	27
RE007 growth inh	u	4%	1%
SARS PLP yeast	-91%	-3%	-1%
Cruzain inh Det	-21%	x	x
Cruzain inh noDet	-24%	x	x
LASV entry inh	13%	u	7%[46.1 µM]
NS1 inh	-51%	-2%	0%
Marburg entry inh	-22%	2%	7%[46.1 µM]
StopGo reporter	u	-13%	-12%
